# Vaccinia inh = blocks a specific stage of Vaccinia orthopoxvirus infection | activity change (mCherry), % (concentration not given with the values) | AID 1053133 | Vaccinia-infected cells, mCherry/Venus stage reporter fluorescence; active compounds read low; some inactives read as strong as hits | 89,000 compounds, 0.01% hits;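 active means mCherry past -33% and 40 or more points under the early reporter, replicates agreeing; inconclusive means past -33% without that gap or agreement; tested in A549 cells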;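 further: scaled between vehicle wells and reference inhibitor wells; 23 nL library stock went into each well; one replicate is shown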
# Vaccinia inh Venus = recorded beside Vaccinia inh, whose call it bears; activity change (Venus), %; measured here: Venus reporter, other viral stage;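 negative = less Venus signal; first of two replicates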
# Starred values were filed as active, the others as inactive; ? = inconclusive; nt = not tested or not shown; & = joins results of further samples.
SMILES,Vaccinia inh,Vaccinia inh Venus
COc1ccc(NC(=O)Nc2ccc3c(c2)C(=O)N([C@@H](C)CO)C[C@@H](C)[C@H](CN(C)S(=O)(=O)c2ccc(F)cc2)OCCCC[C@@H](C)O3)cc1,5,3
COc1ccc(S(=O)(=O)Nc2ccc3c(c2)C(=O)N([C@H](C)CO)C[C@@H](C)[C@@H](CN(C)S(=O)(=O)c2c(C)noc2C)OCCCC[C@H](C)O3)cc1,-10,-9
COc1cccc(C(=O)Nc2ccc3c(c2)C(=O)N(C)C[C@@H](OC)[C@H](C)CN(C(=O)C2CC2)[C@H](C)CO3)c1,-14,-9
COc1ccccc1-c1cn(CC[C@H]2CC[C@H](NC(=O)C3CCCCC3)[C@@H](CO)O2)nn1,-11,-16
C[C@H](O)C#Cc1cnc2c(c1)C(=O)N([C@@H](C)CO)C[C@H](C)[C@@H](CN(C)C(=O)c1ccc(F)cc1)O2,15,6
C/C=C/c1ccc2c(c1)O[C@@H](CN(C)C(=O)Nc1ccc(C(F)(F)F)cc1)[C@@H](C)CN([C@H](C)CO)S2(=O)=O,?,nt
CO[C@H]1CN(C)C(=O)c2ccc(NC(=O)c3cnccn3)cc2OC[C@@H](C)N(C(=O)C2CC2)C[C@@H]1C,9,8
COc1ccccc1-c1ccc([C@H]2[C@@H](C#N)N(C(=O)C3CCOCC3)[C@H]2CO)cc1,-19,-11
C[C@H]1CN([C@@H](C)CO)C(=O)CCCn2nncc2CO[C@H]1CN(C)S(=O)(=O)c1ccc(Cl)cc1,4&7,21&13
CO[C@@H]1CN(C)C(=O)c2ccc(NC(C)=O)cc2OC[C@H](C)N(C(=O)c2ccncc2)C[C@H]1C,-8,0
CCCC(=O)Nc1ccc2c(c1)OC[C@@H](C)N(Cc1ccccc1)C[C@@H](C)[C@@H](OC)CN(C)C2=O,19,13
O=C(C[C@H]1C[C@H]2c3cc(NC(=O)C4CCC4)ccc3O[C@H]2[C@@H](CO)O1)NCC(F)(F)F,25,9
CN(C)CC#Cc1ccc([C@H]2[C@@H](CO)N3CCCCN(C(=O)NC4CCCC4)C[C@H]23)cc1,0,0
C[C@H](CO)N1C[C@H](C)[C@H](CN(C)C)OCc2cnnn2CCCC1=O,18,10
O=C(C[C@@H]1C[C@H]2c3cc(NC(=O)c4cccnc4)ccc3O[C@H]2[C@@H](CO)O1)NCCc1ccccc1,5,8
Cc1ccc(S(=O)(=O)Nc2ccc3c(c2)C(=O)N([C@H](C)CO)C[C@H](C)[C@@H](CN(C)Cc2ccc(C(=O)O)cc2)OCCCC[C@H](C)O3)cc1,26,11
Cc1ccc(S(=O)(=O)N[C@H]2CC[C@H](CC(=O)N3CCc4ccccc4C3)O[C@H]2CO)cc1,3,1
CCCNC(=O)N(C)C[C@H]1Oc2ncc(-c3ccc(OC)cc3)cc2C(=O)N([C@@H](C)CO)C[C@H]1C,3,-1
C[C@@H]1CN([C@@H](C)CO)C(=O)c2cc(C#CC(C)(C)O)cnc2O[C@@H]1CN(C)C(=O)C1CCOCC1,18,7
C[C@@H]1CN([C@@H](C)CO)C(=O)c2cc(NS(=O)(=O)c3cn(C)cn3)ccc2O[C@H]1CN(C)Cc1ccc2c(c1)OCO2,10,9
Cc1ccc(-c2ccc([C@H]3[C@@H](CO)N4CCCCN(C(=O)Nc5ccccc5)C[C@H]34)cc2)cc1,?,nt
COc1ccc(S(=O)(=O)N(C)C[C@@H]2Oc3ccc(NS(C)(=O)=O)cc3C(=O)N([C@@H](C)CO)C[C@@H]2C)cc1,20,15
COc1ccc2c3c(n(C)c2c1)[C@@H](CO)N(C(=O)Nc1ccccc1F)CC31CN(C(=O)c2ccccc2)C1,-15,-14
C[C@@H]1CN([C@H](C)CO)C(=O)c2cc(C#CCc3ccccc3)cnc2O[C@H]1CN(C)Cc1cccnc1,-6,-2
C/C=C/c1ccc2c(c1)O[C@H](CN(C)S(=O)(=O)c1ccc(F)cc1)[C@H](C)CN([C@H](C)CO)S2(=O)=O,?,nt
# The list goes on.
SMILES,Vaccinia inh,Vaccinia inh Venus
C[C@H](CO)N1C[C@H](C)[C@@H](CN(C)C(=O)Nc2ccccc2)Oc2ncc(C#CC3CCCCC3)cc2C1=O,?,-21
C[C@H]1CN([C@@H](C)CO)C(=O)c2cccc(NC(=O)C3CCCCC3)c2O[C@H]1CN(C)S(=O)(=O)c1ccccc1,-16,-9
C[C@H]1CN([C@@H](C)CO)C(=O)Cc2cc(NC(=O)Nc3ccc(F)cc3)ccc2O[C@H]1CN(C)C(=O)NC1CCCCC1,8,8
COc1ccc2c3c(n(C)c2c1)[C@@H](CO)N(CC1CC1)CC31CN(C(=O)NC2CCCC2)C1,0,-1
C[C@@H]1CN([C@H](C)CO)C(=O)c2cc(NC(=O)Cc3ccccc3)ccc2O[C@@H](C)CCCCO[C@@H]1CN(C)C(=O)NC1CCCCC1,13,13
O=C(C1CCOCC1)N1CC(=O)N2[C@H](C1)[C@H](c1ccc(C#Cc3cccc(F)c3)cc1)[C@@H]2CO,?,nt
CCNC(=O)[C@@H]1[C@@H](CO)[C@@H]2Cn3c(ccc(-c4cccnc4)c3=O)[C@@H]2N1Cc1ccc2c(c1)OCO2,8,5
C[C@@H]1CCCCO[C@H](CN(C)Cc2ccncc2)[C@H](C)CN([C@@H](C)CO)C(=O)c2cc(NC(=O)NC3CCCCC3)ccc2O1,-31,-22
O=C(C[C@@H]1C[C@H]2c3cc(NC(=O)C4CCC4)ccc3O[C@H]2[C@H](CO)O1)NCc1ccccc1,-7,-11
C[C@@H]1CN([C@H](C)CO)S(=O)(=O)c2ccc(-c3ccc(C#N)cc3)cc2O[C@@H]1CN(C)Cc1cccc(F)c1,-34,-25
O=C(NCC[C@@H]1CC[C@@H](NS(=O)(=O)c2cccc(F)c2)[C@@H](CO)O1)C1CCC1,0,2
C=CCN1Cc2ccccc2[C@H]2OC(c3ccc(OCCCO)cc3)=N[C@@]2(CCC(=O)OC(C)(C)C)C1=O,?,nt
CNC(=O)C[C@H]1CC[C@@H]2[C@H](COC[C@@H](O)CN2C(=O)Nc2ccc(Cl)c(Cl)c2)O1,7,8
COc1ccc2c3c([nH]c2c1)[C@H](CO)N(Cc1ccccc1F)CC31CN(S(C)(=O)=O)C1,20,19
O=C([C@@H]1[C@@H](CO)[C@@H]2Cn3c(cccc3=O)[C@@H]2N1CC1CCCC1)N1CCCCC1,5,23
COCC#Cc1ccc([C@H]2[C@@H](CO)N3CCCCN(S(=O)(=O)c4ccc(OC)cc4)C[C@@H]23)cc1,-3,0
CCCC(=O)Nc1ccc2c(c1)OC[C@@H](C)N(CC1CCCC1)C[C@H](C)[C@@H](OC)CN(C)C2=O,-5,-8
C[C@H]1CCCCO[C@@H](CN(C)CC2CCCCC2)[C@@H](C)CN([C@@H](C)CO)C(=O)c2cc(NS(=O)(=O)c3ccccc3)ccc2O1,?,nt
C[C@@H]1CN([C@H](C)CO)C(=O)c2cc(Br)cnc2O[C@H]1CN(C)C,28,9
O=S(=O)(N[C@@H]1CCCN(Cc2ccc(OCCO)cc2)C1)c1cccc2cccnc12,-26,-19
CO[C@H]1CN(C)C(=O)c2cc(NS(=O)(=O)c3ccccc3)ccc2OC[C@@H](C)N(Cc2nccs2)C[C@@H]1C,1,4
C[C@@H](O)C#Cc1cnc2c(c1)C(=O)N([C@@H](C)CO)C[C@H](C)[C@@H](CN(C)C(=O)CN(C)C)O2,19,8
CNC[C@@H]1Oc2ccc(NC(=O)NC3CCCCC3)cc2CC(=O)N([C@@H](C)CO)C[C@@H]1C,7,0
O=C1CN(Cc2ccccc2)C[C@H]2[C@@H](c3ccc(-c4ccccc4)cc3)[C@@H](CO)N12,-3,2
O=C(C[C@H]1CC[C@@H]2[C@H](COC[C@@H](O)CN2C(=O)Nc2cccc(Cl)c2)O1)NCC1CCCCC1,?,nt
# New compounds follow.
SMILES,Vaccinia inh,Vaccinia inh Venus
CO[C@H]1CN(C)C(=O)c2cc(NC(=O)C3CCCC3)ccc2OC[C@H](C)N(C(=O)CC2CC2)C[C@H]1C,11,8
COc1ccc(C#Cc2ccc([C@H]3[C@H](CO)N4C(=O)CN(C(=O)C5CCOCC5)C[C@@H]34)cc2)cc1,16,-7
COc1ccc(CN(C)C[C@@H]2OCCCC[C@H](C)Oc3ccc(NC(=O)Nc4ccc(OC)cc4)cc3C(=O)N([C@H](C)CO)C[C@@H]2C)cc1,?,nt
COc1ccc(-c2ccccc2[C@H]2[C@@H](CO)N(C(=O)NC3CCCCC3)[C@H]2C#N)cc1,-20,-8
C[C@H]1CN([C@@H](C)CO)S(=O)(=O)c2ccc(-c3ccccc3)cc2O[C@H]1CN(C)Cc1ccccc1C(=O)O,-2,-3
C[C@H]1CN([C@@H](C)CO)C(=O)c2cccc(NC(=O)Nc3cccc4ccccc34)c2O[C@H]1CN(C)Cc1ccncc1,13,6
O=C(N[C@H]1C=C[C@@H](CC(=O)N2CCC(Cc3ccccc3)CC2)O[C@@H]1CO)c1cnccn1,-10,-7
CCCNC(=O)C[C@H]1CC[C@H]2[C@@H](COC[C@@H](O)CN2C(=O)Nc2ccc3c(c2)OCO3)O1,-1,-2
O=C(C[C@@H]1CC[C@@H]2[C@H](COC[C@@H](O)CN2S(=O)(=O)c2ccccc2)O1)NCc1ccc(-c2ccccc2)cc1,?,nt
CO[C@@H]1CN(C)C(=O)c2ccc(NC(=O)C3CCC3)cc2OC[C@@H](C)N(Cc2cccnc2)C[C@@H]1C,-7,1
Cc1ccccc1-c1ccc([C@H]2[C@H]3CN(S(C)(=O)=O)CC(=O)N3[C@H]2CO)cc1,-6,-8
C[C@@H]1CCCCO[C@@H](CN(C)C(=O)Nc2ccc(F)cc2)[C@@H](C)CN([C@H](C)CO)C(=O)c2cc(NS(C)(=O)=O)ccc2O1,9,8
Cc1noc(C)c1NC(=O)Nc1ccc2c(c1)CC(=O)N([C@H](C)CO)C[C@H](C)[C@@H](CN(C)C(=O)NC1CCCCC1)O2,12,5
C[C@@H]1CN([C@H](C)CO)C(=O)Cc2cc(NC(=O)NC3CCCCC3)ccc2O[C@@H]1CN(C)CC1CC1,8,7
COC(=O)C[C@@H]1C[C@H]2c3cc(NC(=O)CC4CC4)ccc3O[C@H]2[C@H](CO)O1,7,4
O=C(C[C@H]1C[C@@H]2c3cc(NC(=O)Nc4ccc(C(F)(F)F)cc4)ccc3O[C@@H]2[C@@H](CO)O1)NCc1ccc2c(c1)OCO2,?,nt
COc1cccc(-c2cnc3c(c2)C(=O)N([C@H](C)CO)C[C@H](C)[C@H](CN(C)Cc2cccnc2)O3)c1,7,5
C[C@H](CO)N1C[C@H](C)[C@H](CN(C)Cc2ccc3c(c2)OCO3)Oc2ccc(NC(=O)Cc3cn(C)c4ccccc34)cc2CC1=O,-10,1
CO[C@H](C(=O)N(C)C[C@@H]1OCc2ccccc2-c2c(n(C)c3ccccc23)C(=O)N([C@@H](C)CO)C[C@H]1C)c1ccccc1,-19,-14
CO[C@@H]1CN(C)C(=O)c2cc(NC(=O)C3CCCCC3)ccc2OC[C@@H](C)N(C(=O)c2ccccc2)C[C@H]1C,-20,-14
CCC(=O)Nc1ccc2c(c1)C(=O)N(C)[C@H]1CC[C@@H](CC(=O)NCC3CC3)O[C@H]1CO2,6,7
C[C@H]1CN([C@@H](C)CO)C(=O)c2cc(-c3ccccc3)cnc2O[C@H]1CN(C)C(=O)c1ccccn1,4,5
C[C@H](CO)N1C[C@H](C)[C@@H](CN(C)C(=O)Nc2ccc(F)cc2)Oc2ccc(NC(=O)Cc3ccccc3)cc2C1=O,31,18
COc1ccc(NC(=O)N(C)C[C@H]2OCCCC[C@@H](C)Oc3ccc(NC(=O)Nc4ccc(F)cc4)cc3C(=O)N([C@H](C)CO)C[C@H]2C)cc1,5,13
C[C@H](CO)N1C[C@H](C)[C@H](CN(C)Cc2ccc(C(=O)O)cc2)Oc2c(NC(=O)NC3CCCCC3)cccc2C1=O,15,14
C[C@@H]1CN([C@H](C)CO)C(=O)c2cc(-c3ccccc3F)cnc2O[C@H]1CN(C)Cc1ccccc1F,-30,-23

# Assay outcomes: PubChem BioAssay, Broad Institute

# These rows are one share of the data. The share of hits here may be higher or lower than overall.
